# Calb FLC: affects C. albicans growth with fluconazole; 300,000 compounds, 0.57% hits; C. albicans CaCi-2 (fluconazole-resistant clinical isolate) + fluconazole, Alamar Blue growth, 48 h; growth inhibition, % (no concentration beside the values);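 active means most replicates above 75%; inconclusive means exactly half above 75%; inactive means most below 75%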;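 further: all wells also contain fluconazole at 8 µg/ml as a sub-toxic cotreatment; 0% = median of DMSO wells and 100% = median of geldanamycin control wells; wells of about 8 µL received 7.5 nL stock; the first replicate is given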
# T cruzi repl: blocks replication of Trypanosoma cruzi. T. cruzi beta-gal in NIH3T3, luminescence, 90 h. inhibition, % (test concentration not listed). 300,000 compounds, 1.4% hits. AID 1885;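 active means mean inhibition across valid replicates above about 55%, limit read from the data; inconclusive means mean below that limit but half or more replicates reach it; inactive means mean below it, under half of replicates reach it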;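 further: signal also drops with host cell toxicity which is not excluded here; 0% = plate median of DMSO wells and 100% = zero luminescence signal; higher percent means less beta-gal luminescence so fewer parasites; stock transfer was 50 nL into about 50 µL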
# AF4-AF9 inh: inhibitors of human MLL-AF4/AF9 interaction. P42568. AlphaScreen, biotin-AF4 peptide binding to FLAG-AF9. inhibition, % at 10 µM. 350,000 compounds, 0.47% hits;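 active means every replicate reaching a set inhibition limit, whatever the replicate mean, cut at about 25% in these data; inconclusive means mean inhibition reaches that limit but some replicates miss it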;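 further: 0% = plate neutral control median and 100% = total signal loss; the record names both 10 and 1 µM as test concentration; the first replicate is given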
# Target sequence (P42568 whole entry, looked up): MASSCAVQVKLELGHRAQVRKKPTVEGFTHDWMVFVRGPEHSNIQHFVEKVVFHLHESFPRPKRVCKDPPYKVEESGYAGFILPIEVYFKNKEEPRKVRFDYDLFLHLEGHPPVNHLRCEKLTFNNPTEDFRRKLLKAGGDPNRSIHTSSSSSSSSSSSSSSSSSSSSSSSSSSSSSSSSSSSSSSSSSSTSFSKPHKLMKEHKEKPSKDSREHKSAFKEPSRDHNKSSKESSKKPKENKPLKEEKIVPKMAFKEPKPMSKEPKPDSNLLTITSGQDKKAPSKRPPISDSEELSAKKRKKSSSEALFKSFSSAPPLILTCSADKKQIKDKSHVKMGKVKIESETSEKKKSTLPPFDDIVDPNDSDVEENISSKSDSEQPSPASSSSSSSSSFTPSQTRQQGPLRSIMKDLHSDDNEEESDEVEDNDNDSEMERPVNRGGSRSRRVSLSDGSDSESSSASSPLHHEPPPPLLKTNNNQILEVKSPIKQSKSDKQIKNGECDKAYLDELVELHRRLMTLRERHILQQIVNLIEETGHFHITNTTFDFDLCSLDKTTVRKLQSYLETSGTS
# A1 inh: inhibitors of the anti-apoptotic protein A1, read as caspase activation. MEF A1-2A-BIM cells, Caspase-Glo 3/7 luminescence, 3 h; percent of clofoctol response, vehicle zero. caspase activation, % (test concentration not listed). 330,000 compounds, 0.066% hits;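 active means over half of replicate activation scores above 10%, or exactly half above 10 with the replicate mean above 10; inconclusive means replicate mean below 10 yet half the replicates above 10; inactive means over half of replicates below 10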;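 further: wells of about 30 µL received 50 nL stock; many hits fall short of the cut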
# Ecoli rRNA inh: inhibits bacterial ribosomal RNA function over humanized ribosomes; E. coli WT GFP vs humanized-ribosome RFP mutants, fluorescence, 24 h; active compounds read low; DMSO median 0, no signal -100; GFP signal change (wild-type ribosome), % (test concentration not listed); 350,000 compounds, 1.6% hits;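 active means significant combined selectivity score with lowered wild-type GFP, culture density cut under 30%, mutant RFP and density less affected; inactive means any of these conditions unmet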; further: one replicate is shown; some compounds called inactive have numbers as strong as hits
# RanGTP-Imp inh: disruptors of Ran-importin-beta complex formation – biochemical, FRET, CFP-Ran, YFP-importin-beta, homogeneous, primary screen | 300,000 compounds, 1.1% hits | inhibition, % (concentration not given with the values) | AID 2216 | cell-free CFP-Ran/YFP-importin-beta FRET ratio;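 active means most replicates above 15%; inconclusive means exactly half above 15%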;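 further: 0% = DMSO wells and 100% = Ran loaded with GDP instead of GTP; wells of about 40 µL received 100 nL stock; the first replicate is given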
# Beta cell apopt: blocks beta cell apoptosis. INS-1E cytokine-induced death, ATP luminescence, 48 h; percent of positive-control rescue, neutral wells zero. protection from apoptosis, % (no concentration beside the values). 300,000 compounds, 0.8% hits. AID 435005;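 active means all replicates at 75% or more, or half of them and the mean; inconclusive means half reach 75% but not the mean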;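 further: 0% = cytokine-treated negative control wells and 100% = positive control rescue; higher means more ATP so stronger rescue from cytokine killing; wells of about 40 µL received 100 nL stock; the first replicate is given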
# Vif A3G: HIV-1 Vif–A3G interaction blockers – biochemical, TR-FRET, GST-Vif 1-94, biotin-A3G peptide, dose response retest, primary screen (AID 1117319). TR-FRET GST-Vif / biotin-A3G peptide binding; higher % means a stronger effect; test concentration not given here; strong numbers were not always called active. one-dose inhibition, %; IC50 in µM for titrated hits. 260,000 compounds, 0.57% hits;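 active means above the screen mean plus three standard deviations and confirmed in dose response; inconclusive means results disagree or hit not tested in dose response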;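 further: Vif residues 1-94 fused to GST binding biotinylated APOBEC3G peptide 110-148; 0% = full assay without inhibitor and 100% = GST in place of GST-Vif; retest series ran down from 100 µM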
# Ecoli rRNA inh OD600: further read-out of Ecoli rRNA inh, marked with its call; OD600 change, %; measured here: OD600 growth;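 optical density of the mix in the first replicate; 0 = DMSO median and -100 = no signal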
# Ecoli rRNA inh RFP: recorded beside Ecoli rRNA inh, whose call it bears; RFP signal change, %; measured here: RFP humanized mutant strains;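 first replicate; 0 = DMSO median and -100 = no signal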
# Numbers without * were called inactive; ? = inconclusive; . = no result given.
structure	Calb FLC	T cruzi repl	AF4-AF9 inh	A1 inh	Ecoli rRNA inh	Ecoli rRNA inh OD600	Ecoli rRNA inh RFP	RanGTP-Imp inh	Beta cell apopt	Vif A3G
Cc1cccc(NC(=O)c2cc(S(=O)(=O)NCc3ccco3)ccc2F)c1C	9.8	-19.4	.	0.1	.	.	.	?	7.3	12.3%
CC(=O)c1cccc(NC(=O)[C@@H](NC(N)=O)C(C)C)c1	6.1	-3.0	-0.6	0.0	-1.4	8.3	0.3	-3.0	0.2	8.1%
COc1ccc(/C=C(\C#N)C(=O)Nc2ccccn2)cc1	-10.7	-8.5	1.5	-2.5	11.7	13.4	0.2	-2.3	-1.4	-5.6%
COc1ccc([N+](=O)[O-])cc1NS(=O)(=O)c1cccc(C(=O)O)c1	6.5	-9.5	-0.1	1.3	6.4	-1.2	-3.7	1.3	-2.0	17.5%
CCOC(=O)N1CCN(C(c2ccc(F)cc2)c2sc3nc(C)nn3c2O)CC1 (stereo unspecified)	-1.6	-3.8	3.1	-0.4	-2.9	-5.8	-1.1	-5.2	0.4	0.9%
CCC(C)(C(=O)Nc1ccccc1C)N(C(=O)CNC(C)=O)c1ccc(C)cc1 (stereo unspecified)	-3.3	19.7	.	0.3	.	.	.	-0.6	-20.9	9.1%
COc1ccccc1C(=O)NCC(=O)OCC(=O)Nc1cccc(S(=O)(=O)N2CCCCCC2)c1	29.3	-4.0	-1.6	0.3	-21.1	-19.5	1.1	-1.1	-2.9	0.8%
COc1ccccc1CNC(=O)c1ccc(Cl)c(S(=O)(=O)N2CCCC2)c1	.	.	0.5	0.7	-7.2	-26.7	-0.9	.	4.7	.
COCCNC(=O)CC(=O)N/N=C/c1ccc(C(=O)OC)cc1	7.6	-11.3	0.1	0.6	7.0	7.3	0.2	-1.1	-4.2	-7.7%
CC1CC(C)CN(CC(=O)NC(c2ccccc2)c2ccccc2)C1 (stereo unspecified)	2.3	-13.4	1.9	0.3	-45.6	-72.0	-4.7	-0.1	-5.3	24.9%
CCCCCCn1c(CN2CCN(Cc3ccccc3)CC2)nc2c1c(=O)n(C)c(=O)n2C	-11.2	31.6	.	-0.2	.	.	.	0.4	-7.4	1.7%
CCC(=O)Nc1ccc(C(=O)CN2CCC(C)CC2)cc1	18.1	-23.6	.	0.6	.	.	.	2.3	-1.9	7.7%
Cc1nn(Cc2n[nH]c(=S)n2Cc2ccccc2)c(C)c1Cl	-6.4	-0.4	.	1.7	.	.	.	-5.0	-2.3	13.4%
COc1ccccc1NC(=O)N(CCN(C)C)Cc1cc2cc(C)ccc2[nH]c1=O	-5.5	11.3	.	0.6	.	.	.	-1.0	-0.3	18.7%
Cc1cc(C)n2[nH]c(=O)c(N=Nc3cccc(C(F)(F)F)c3)c2n1	-4.5	-10.8	.	-0.4	.	.	.	6.0	4.5	2.5%
OCCCN1CCN(CCOc2ccccc2-c2ccccc2)CC1	-27.2	-4.0	8.0	0.3	2.3	4.1	1.8	5.0	-3.3	8.7%
CCOC(=O)N1CCN(Cc2nc3cc(NC(C)=O)ccc3n2CC)CC1	0.2	6.5	0.4	0.9	10.3	14.9	2.6	-4.4	-6.8	0.5%
O=C1c2ccccc2C(=O)N1CCCCc1cn(C[C@H]2CC[C@@H]([C@@H]3CC[C@H](Cn4cc(CCCCN5C(=O)c6ccccc6C5=O)nn4)O3)O2)nn1	.	.	0.6	-0.5	-9.2	-10.8	-5.9	.	0.5	.
Cn1c(-c2ccccc2)cnc1N	43.5	2.0	.	1.8	.	.	.	-0.2	3.1	2.1%
COc1ccc(N(C(=O)c2ccco2)S(=O)(=O)c2cccc([N+](=O)[O-])c2)cc1	28.7	-25.0	.	-0.3	.	.	.	6.1	-6.0	5.5%
Cn1cc(CN2CCC(C(=O)N3CCCC3)CC2)c(-c2ccccc2F)n1	-1.1	-14.4	-0.3	-0.3	16.4	5.5	-1.2	0.2	-9.0	-4.0%
CCCCCCn1cc(C(=O)O)c(=O)c2cc(F)c(N3CCN(C(=O)OCC)CC3)cc21	-0.2	-7.7	-2.6	-0.6	-1.9	5.9	-4.8	-1.5	8.3	-6.7%
CCn1c2ccccc2c2cc(/C=N/NC(=O)c3ccncc3)ccc21	-6.8	-5.6	5.5	0.0	-35.9*	-19.9*	0.6*	-0.4	-4.9	-9.3%
O=c1ccc2cc([N+](=O)[O-])c(CCO)cc2o1	18.6	-1.4	-6.5	0.2	-10.5	7.2	6.0	?	-4.4	.
CCN1CCN(c2nc(Nc3cc(OC)ccc3OC)nc(Nc3cc(OC)ccc3OC)n2)CC1	4.5	22.2	2.8	0.3	0.7	-11.6	-0.7	1.1	-10.5	.
CC1=C(n2nnc3ccccc32)C(c2ccccc2)C(C#N)=C(N)O1 (stereo unspecified)	31.9	-27.1	.	0.6	.	.	.	2.9	-2.9	9.2%
C/C(NC1CCCC1)=C(/C#N)C(N)=O	0.1	-5.4	.	0.0	.	.	.	2.5	0.7	3.5%
CC(C)CC(=O)CN1C(=O)C2(OCCO2)c2ccccc21	11.5	-16.6	.	-0.2	.	.	.	-2.0	-1.6	1.4%
CNC(=O)c1[nH]cnc1C(=O)N[C@@H](Cc1ccccc1)C(=O)OC(C)(C)C	4.9	0.0	5.3	1.5	10.8	8.6	1.5	0.5	0.2	1.0%
O=C(Cc1cccc2ccccc12)NCCOc1ccccc1F	19.3	-17.5	-5.7	-0.6	-38.9*	-19.8*	-1.6*	?	-11.0	.
Cc1cccc2cc(C#N)c(SCC(=O)NNC(=O)Cc3ccccc3)nc12	-2.8	3.3	.	-0.5	.	.	.	-1.2	-0.3	-32.4%
Cc1ccc(CNC(=O)C2CCN(S(=O)(=O)c3cccc4nonc34)CC2)cc1	-3.6	-2.0	-1.0	-0.3	10.9	16.7	-0.9	?	1.4	4.0%
CC(Sc1nnc(-c2ccc(O)cc2)o1)C(=O)Nc1cccc2ccccc12 (stereo unspecified)	-2.4	-3.8	.	0.6	.	.	.	-11.9	-2.8	25.7%
CCn1ncc(/C=N/O)c1C	-17.5	-19.9	.	0.9	.	.	.	-2.7	-4.7	5.4%
O=C(CN1C(=O)NC2(CCCCCC2)C1=O)NCc1ccccc1	.	.	-2.1	0.0	13.1	0.9	-0.6	.	3.6	.
O=C(N/N=C\c1c(O)ccc2ccccc12)c1cncc(Br)c1	82.5*	65.4*	2.4	-0.3	5.3	1.2	-4.3	-10.1	87.5*	25.9%
CCn1c(SCC(=O)N2CCCC(C)C2)nnc1-c1ccco1 (stereo unspecified)	3.3	9.2	-5.5	0.0	2.1	4.0	-1.4	6.1	3.4	.
Cn1c(NCC(O)CO)nc2c1c(=O)n(Cc1ccc(Cl)c(Cl)c1)c(=O)n2C (stereo unspecified)	-11.5	-4.3	.	0.7	.	.	.	3.8	-11.9	-2.1%
COCCn1c(SCC(=O)Nc2ccccc2C)nc2c(oc3ccccc32)c1=O	5.0	2.9	.	-0.1	.	.	.	-5.3	8.2	.
O=C(CNCC(=O)Nc1ccc(F)c(F)c1F)Nc1ccc(F)c(F)c1F	2.1	-4.6	-2.1	-0.6	1.5	12.3	4.2	2.1	-0.1	-5.9%
CCOCCn1c(CC)nc2ccccc21	-0.5	-14.8	-12.0	0.0	-0.1	-19.1	-4.2	-5.8	-4.0	12.7%
O=C(CN1CCCN(Cc2ccc(F)cc2Cl)C1=O)NC1CCCC1	-0.1	1.6	-1.3	0.4	3.6	-3.6	-5.8	2.9	0.0	-15.1%
CCOc1nc(-c2ccccc2)c2cc(Br)ccc2n1	-2.8	2.0	0.3	0.3	-1.0	7.5	1.1	3.1	-1.1	.
CCOc1nc(NCCC2=CCCCC2)nc(N2CCOCC2)n1	3.7	30.6	.	-0.4	.	.	.	-3.6	1.6	7.7%
CCc1cc(C(=O)NC2CCCc3c2cnn3-c2cccc(C)c2C)n(C)n1 (stereo unspecified)	90.8*	2.3	-0.1	-1.5	-1.7	-9.4	-2.1	?	98.6*	.
C/C(CCc1ccccc1)=N\NC(=S)NCCc1ccccc1	14.6	13.5	-1.4	-0.2	2.9	3.0	2.0	4.4	-3.9	.
O=C(O)C1C2C=CC(C2)C1C(=O)OCC1CCCO1 (stereo unspecified)	?	-7.4	.	-0.1	.	.	.	?	-14.5	1.6%
N/C(=N\OS(=O)(=O)c1cccc([N+](=O)[O-])c1)c1ccncc1	-0.6	-6.5	-0.2	0.0	16.2	10.1	-4.5	-1.7	2.9	29.4%
COc1ccc(OC)c(C2C3=C(N=C4SCC(=O)N42)c2ccccc2CC3)c1 (stereo unspecified)	?	23.2	.	0.6	.	.	.	-0.8	-11.3	3.6%
CN(C(=O)COC(=O)CSc1cc(Cl)ccc1Cl)c1c(N)n(Cc2ccccc2)c(=O)[nH]c1=O	12.7	-19.4	-4.1	0.5	1.9	0.6	1.1	-0.1	-5.8	-0.2%
O=C(O)c1cccnc1SCc1ccc([N+](=O)[O-])cc1	-5.0	1.6	-2.7	-0.9	1.7	2.1	-4.7	-1.4	.	1.8%
Cc1cc(C)n(C(=O)Cn2nc(C)c(Br)c2C)n1	-1.4	-10.8	2.4	0.7	-9.8	-9.8	-2.9	-0.4	-5.8	-5.6%
Oc1cccc(C(O)CNCc2ccc(OCc3ccc(Cl)cc3Cl)cc2)c1 (stereo unspecified)	13.7	-1.2	6.3	-0.4	-53.4	-81.4	-13.4	-54.2	5.2	-5.7%
Nc1nc(-c2ccccc2)cn1/N=C/c1ccccc1	-6.0	31.6	3.5	0.7	-3.2	-4.1	0.5	10.8	-1.2	-12.5%
Cc1ccccc1CSc1ccc(-c2ccc3c(c2)OCO3)nn1	-34.4	26.6	-16.0	0.6	-9.2	-11.0	-6.0	-3.6	-3.6	.
COc1ccc(C(=O)CSc2nc3ccccc3n2CC(=O)NC(C)(C)C)cc1	.	.	.	0.0	-4.7	-29.1	5.1	.	-3.6	5.5%
NCCCC[C@H]1CNC(=O)C(=O)N1CCC12CC3CC(CC(C3)C1)C2	-18.1	-5.9	-0.9	-0.6	15.6	9.3	4.6	1.3	-2.7	11.7%
O=C(Oc1ccc(-c2cn3c(n2)SCC3)cc1)c1ccccc1	5.0	5.1	.	-1.3	.	.	.	0.0	5.6	-2.2%

# The list is partial, so the mix of outcomes need not match the whole.
